Bioassay records as filed in PubChem.
SARS PLpro yeast: blocks SARS-CoV papain-like protease in a yeast assay; AID 485353; S. cerevisiae expressing SARS-CoV PLpro, growth rescue; control for the full effect not named in the record; Potency, µM (series often up to 32.9 µM), for inactives: at the highest dose activity, positive = growth rescue; 330,000 compounds, 0.19% hits; further: 0% is about no effect; nearly all actives have a fitted effect of over 55% in size; growth read by luminescence after 48 h
2A StopGo: FMDV 2A StopGo reporter, luciferase signal; human cells with a luciferase reporter of 2A StopGo recoding; control for the full effect not named in the record; Potency, µM (top dose mostly 57.9 µM), for the others: top-dose signal change, negative = less light; 410,000 compounds, 1.2% hits; active = well fitted falling curve with a large enough effect; inconclusive = small, poorly fitted or top-dose-only effect; inactive = no such curve, though single readings can be large or run the other way; tested in HEK293T cells; further: on the % scale 0 is the no-effect control and ±100 the full control effect; nearly all actives have a fitted effect of over 45% in size; luciferase light after 4 h
Cruzain Triton: inhibitors of Trypanosoma cruzi cruzain with detergent. P25779. purified cruzain, Z-FR-AMC fluorescence, 0.01% Triton. Potency, µM, without a hit: max response, negative = inhibition, usual class: inhibitors. 200,000 compounds, 0.43% hits. AID 1478; active means well fitted curve in the direction sought with a large enough effect; inconclusive means small, poorly fitted or top-dose-only effect, or another doubt; inactive means no such curve, though single readings can be large; an effect the other way counts as inactive or inconclusive;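 further: plate controls were neutral wells for no effect and buffer without enzyme for full effect; nearly all actives have a fitted effect of over 40% in size; top concentration of the series not given in the record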
Target sequence (P25779 123-467 limits assumed): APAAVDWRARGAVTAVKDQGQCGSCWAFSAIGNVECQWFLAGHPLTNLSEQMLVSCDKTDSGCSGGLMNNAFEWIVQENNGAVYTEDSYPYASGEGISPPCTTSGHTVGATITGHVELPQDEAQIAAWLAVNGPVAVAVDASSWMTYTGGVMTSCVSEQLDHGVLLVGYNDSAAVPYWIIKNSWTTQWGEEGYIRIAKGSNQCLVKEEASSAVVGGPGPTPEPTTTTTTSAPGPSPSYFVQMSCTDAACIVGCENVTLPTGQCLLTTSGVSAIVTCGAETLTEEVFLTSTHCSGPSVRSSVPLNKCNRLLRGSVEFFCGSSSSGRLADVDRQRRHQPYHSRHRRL
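Z-FR-AMC hydrolysis (2 uM substrate) by cruzain (1.5 nM) monitored kinetically at ex 360/em 450 nm after 15 min room-temperature compound exposure; 0.01% Triton X-100, pH 5.5, 5 mM DTT.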
Lassa entry inh: blocks Lassa virus binding to or entry into cells | AID 540256 | Potency, µM (series often up to 37.9 µM), for the others: top-dose activity change, negative = inhibition, most hits filed as inhibitors | Lassa virus pseudotype entry inhibition, cell reporter; control for the full effect not named in the record | 300,000 compounds, 1.2% hits; active means well fitted inhibition curve with a large enough effect; inconclusive means small, poorly fitted or top-dose-only effect, or effect the other way; inactive means flat fitted curve, though single readings scatter; tested in HEK293 cells; further: on the % scale 0 is the no-effect control and ±100 the full control effect; nearly all actives have a fitted effect of over 50% in size; luciferase read-out
Cruzain inh noDet: blocks cruzain activity in detergent-free assay; purified cruzain, Z-FR-AMC fluorescence, no detergent; Potency, µM, for the others: max response, negative = inhibition, hits mostly inhibitors; 200,000 compounds, 2.3% hits; active means well fitted curve in the direction sought with a large enough effect; inconclusive means small, poorly fitted or top-dose-only effect, or another doubt; inactive means no such curve, though single readings can be large; an effect the other way counts as inactive or inconclusive;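 further: plate controls were enzyme without inhibitor for no effect and buffer without enzyme for full effect; nearly all actives have a fitted effect of over 40% in size; top concentration of the series not given in the record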
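Detergent-free condition (0.00005% Triton X-100) in acetate buffer pH 5.5 with DTT. 1.5 nM enzyme and compound were pre-mixed 15 min, then 2 uM Z-FR-AMC substrate added; reaction progress from fluorescence change between first and third reads (60 s).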
NS1 function inh: inhibitors of influenza NS1 protein function; 270,000 compounds, 0.4% hits; S. cerevisiae slowed by influenza A NS1, growth recovery by OD600; AID 2326; Potency, µM (doses to about 46.1 µM), inactives show at the top dose activity, positive = more growth; further: actives are rising curves; nearly all actives have a fitted effect of over 50% in size
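In this qHTS, NS1 from influenza A is expressed in budding yeast, where it slows growth. Cells are switched from glucose to 2% galactose medium (pH 6.0, -URA), treated with compound, and growth recovery is read at OD600.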
RE007 growth inh: less growth of the S. pombe RE007 Vpr strain | S. pombe RE007 Vpr strain, BacTiter-Glo ATP luminescence, 24 h; control for the full effect not named in the record | Potency, µM (top dose mostly 92.2 µM), for the others: at the top dose activity change, negative = less growth | 360,000 compounds, 0.21% hits | AID 651644; active = well fitted falling curve with a large enough effect; inconclusive = small, poorly fitted or top-dose-only effect; inactive = no such curve, though single readings can be large or run the other way;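 further: on the % scale 0 is the no-effect control and ±100 the full control effect; nearly all actives have a fitted effect of over 50% in size; the assay follows cell death caused by Vpr and the record does not say whether a fall means rescue or toxicity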
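Fission yeast RE007 carrying one integrated HIV-1 vpr copy, seeded at OD 0.01 in PMG+AL medium with 23 nL pinned compound. Grown 24 h at 30 degrees; viability read by BacTiter-Glo luminescence after 5 min.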
Marburg entry inh: blocks Marburg virus binding to or entry into cells. Marburg virus pseudotyped entry inhibition, cell reporter; control for the full effect not named in the record; about a third of the inactives were read at about 46 µM. Potency, µM (titrated, usually from 37.8 µM), inactives show at the highest dose activity change, negative = inhibition, usual class: inhibitors. 300,000 compounds, 1.8% hits. AID 540276; active = well fitted inhibition curve with a large enough effect; inconclusive = small, poorly fitted or top-dose-only effect, or effect the other way; inactive = flat fitted curve, though single readings scatter; tested in HEK293 cells; about a fifth of its hits are not listed in these tables; further: on the % scale 0 is the no-effect control and ±100 the full control effect; luciferase read-out
* = called active by the depositor; ? = inconclusive; / = no result given; & = joins results of further samples; [ ] = remark or other dose. Unless noted, the call rests on the fitted dose curve; in most records, active means well fitted rising curve with a large enough effect; inconclusive means small, poorly fitted or top-dose-only effect; inactive means no such curve, though single readings can be large or run the other way. Potency means the concentration at half of the fitted maximal effect.

SMILES	SARS PLpro yeast	2A StopGo	Cruzain Triton	Lassa entry inh	Cruzain inh noDet	NS1 function inh	RE007 growth inh	Marburg entry inh
Cc1ccccc1-c1nc(CS(=O)CC(=O)NC2CCCC2)c(C)o1 (centres undefined)	6%	22%	/	/	/	21%	-7%	/
CCOc1cc(NC(=S)NCC(C)C)c(OCC)cc1NC(=O)c1ccco1	2%	-28%	-4.4%	-14%	19%	17%	-11%	-15%
Oc1ccc(Br)cc1CN1CCCCCCC1	1%	-13%	0.4%	0%	-2%	-9%	-14%	20%
CCOC(=O)C1=NNC(C(=O)O)C1c1ccccc1 (centres undefined)	/	0%	/	27%	/	/	-2%	13%
Cc1ccc(NC(=O)CN(C)C(=O)c2ccc(C(F)(F)F)cc2)cc1	-1%	0%	-3.2%	4%	-10%	8%	-7%	4%
Nc1c(CO)nnn1-c1ccccc1	18%	12%	-0.7%	11%	-7%	-5%	2%	6%
CN(C)/C=C/C(=O)c1ccccc1	1%	11%	/	/	/	-7%	0%	/
C[C@@H](C(=O)NNC(=O)c1ccc(Cl)cc1)N1C(=O)C2CC=CCC2C1=O (some centres undefined)	0%	8%	/	21%[46.1 µM]	/	/	1%	10%[46.1 µM]
CC(=O)c1cccc(NC(=O)CCc2nc3cccnc3n2Cc2cccs2)c1	/	-20%	-6.4%	-11%[46.1 µM]	2%	/	/	?
CCCCOC(=O)c1ccc(NC(=O)c2cc(Cl)ccc2OC)cc1	-2%	?	-5.2%	-16%	-8%	-1%	-20%	?
O=Cc1cccn1Cc1ccc(Cl)cc1Cl	1%	-5%	1.0%	19%	-5%	24%	13%	-11%
Cc1c(Cl)cccc1NC(=O)c1ccc2c(c1)CCCN2S(C)(=O)=O	/	?	-2.4%	22%[46.1 µM]	18%	/	/	22%[46.1 µM]
N#C/C(=C\c1c[nH]c2ccc(Br)cc12)c1ccccn1	2%	-17%	/	?	/	4%	-5%	13µM*
CC(=O)c1ccc(N2CCN(S(=O)(=O)c3ccc(-c4cc(C)no4)s3)CC2)cc1	1%	0%&3%	0.3%	0%[46.1 µM]	-12%	2%	-9%	/
O=C1CCC(C(=O)OCc2nnc(-c3ccccc3)o2)=NN1	-4%	41%[activator]	/	4%	/	/	-9%	?
COc1ccc(S(=O)(=O)N2CCCN(S(=O)(=O)c3ccc(OC)c(C)c3)CC2)cc1C	-14%	/	-4.8%	?	10%	18%	0%	?
Cc1ccc2cc(C#N)c(NCCCNC(=O)C3CCCO3)nc2c1 (centres undefined)	-2%	-15%	-12%	?	0%	-6%	0%	?
O=C(Cc1ccc(Cl)cc1Cl)Nc1ccc(OC(F)F)c(Cl)c1	-17%	-22%	-6.2%	-3%	-19%	-1%	95%	?
Cc1ccc(S(=O)(=O)CC(=O)NCc2ccccc2)cc1	5%	1%	/	13%[46.1 µM]	/	-6%	-15%	12%[46.1 µM]
CC1=CCC2C(=O)N(c3ccc(OC(=O)c4ccco4)cc3)C(=O)C2C1 (centres undefined)	0%	-4%	/	/	/	-7%	1%	/
CCN(CC)S(=O)(=O)c1ccc(OCC(=O)NC2CCS(=O)(=O)C2)c([N+](=O)[O-])c1 (centres undefined)	0%	-3%	/	0%	/	/	3%	-1%
CS(=O)(=O)Nc1ccc(-c2nnc3n2CCCCC3)cc1	1%	-17%	/	/	/	3%	26%	/
COc1ccc(-c2c(C#N)c(N)nc3c2CCc2ccccc2-3)cc1OC	-18%	16µM*	-20%	?	-4%	-26%	-5%	23µM*
CCCc1noc2c1/C(=N\O)CC(c1ccccc1)C2 (centres undefined)	-2%	-15%	-0.2%	-10%	?	8%	-10%	5%
CC[C@@H]1C(c2ccc(F)cc2)=NN(c2ccc(Br)cc2)[C@H]1C(=O)N1CCOC1=O	-59%	-25%	-5.8%	/	?	/	-7%	/
O=C(O)CNC(=O)CCn1nnc2ccccc2c1=O	1%	-16%	/	/	/	0%	-6%	/
COc1ccc(C(=O)NC(=S)NNC(=O)CCc2ccccc2)cc1	-18%	/	2.4%	?	-7%	-90%	?	?
Cc1cccc(-n2c(SCC(=O)Nc3ccccc3Cl)nc3n[nH]c(C)c3c2=N)c1	/	?	-11%	-1%[46.1 µM]	6%	/	/	/
Cc1cccc(N2CCN(C(=O)c3ccc(NC(=O)c4nsc5ccccc45)cc3)CC2)c1C	/	0%	1.7%	8%[46.1 µM]	8%	/	/	/
CCOc1ccccc1CNC(=O)C1CCN(S(=O)(=O)c2c(C)noc2/C=C/c2ccccc2F)CC1	/	-9%	-2.0%	8%[46.1 µM]	-14%	/	/	/
O=C(NCc1ccncc1)Nc1cc(Cl)ccc1Cl	-1%	7%	/	/	/	-1%	-3%	/
OC(c1ccc(Cl)cc1)c1nnc(-c2ccccc2)o1 (centres undefined)	-2%	23%	-5.7%	3%	0%	-2%	10%	16%[46.1 µM]
Cc1cc2c(cc1S(=O)(=O)N1CCC(C)CC1)OCC(=O)N2	/	69%	-8.8%	6%[46.1 µM]	10%	/	/	/
C=CCNCCCCOc1cccc(Br)c1	1%	-11%	/	-2%	/	-2%	-12%	13µM*
CCc1nnc(NS(=O)(=O)c2ccc(NC(=S)NC(=O)/C=C/c3cccs3)cc2)s1	1%	-3%	/	-4%	/	1%	-4%	14%[46.1 µM]
Cc1[nH]cnc1C(=O)N/N=C/c1ccc([N+](=O)[O-])s1	-2%	-1%	/	-10%[46.1 µM]	/	-4%	-30%	?
O=C1CN(C(=S)NC(=O)c2ccccc2[N+](=O)[O-])CCN1	-3%	-23%	/	/	/	4%	13%	/
NC(=S)NNc1c(F)c(F)c(F)c(F)c1F	-5%	-5%	/	-1%	/	/	?	15%[46.1 µM]
COc1cc(NC(=O)C2CCCN(S(=O)(=O)c3cccc4nsnc34)C2)cc(OC)c1 (centres undefined)	9%	-29%	-6.3%	?	-5%	-7%	6%	?
NC1=NC(c2ccccc2)CC(=O)N1 (centres undefined)	/	14%	/	11%[46.1 µM]	/	/	1%	2%[46.1 µM]
CCOC(=O)C1(Cc2cccc(OC)c2)CCN(Cc2cccc(OCC)c2O)CC1	-1%	?	/	-24%[46.1 µM]	/	1%	-10%	7.1µM*
COc1ccc(C(=O)Nc2ccc(F)cc2F)cc1	-5%	/	2.0%	-16%	0%	6%	-16%	?
O=C(COc1ccc(Cl)cc1Cl)NNC(=S)Nc1ccc(F)cc1	-1%	-6%	1.6%	-9%	7%	-127%	11%	-9%
O=C1OCC(c2ccc(Cl)s2)=C1c1ccccc1[N+](=O)[O-]	5%	-16%	/	?	/	0%	15%	?
Cc1ccc(-n2c(=O)c3c(cnn3C)n(CC(=O)Nc3cccc(Cl)c3)c2=O)cc1	/	-17%	-6.9%	-5%[46.1 µM]	4%	/	/	3%[46.1 µM]
Cc1cccc(C(=O)NNC(=O)C2CCN(C(=O)OC(C)(C)C)CC2)c1	0%	-12%	/	/	/	3%	-2%	/
COc1ccc(C(NC(C)=O)c2cc(Cl)c3cccnc3c2O)cc1OC (centres undefined)	5%	-17%	/	2.8µM*	/	/	-6%	?
CCCCC(=O)N(CCOC)c1nnc(-c2ccc(OC)cc2)s1	2%	1%	-5.2%	-2%	?	-10%	-2%	17%
Cc1ccc(OC(C)C(=O)N2CCN(c3ccccn3)CC2)cc1 (centres undefined)	/	8%	/	1%	/	/	1%	3%[46.1 µM]
COc1ccc(-c2csc(NCc3ccco3)n2)cc1	-5%	36%[activator]	-4.4%	?	-9%	20%	?	?
CCN(CC)CCNC(=O)C1CCN(S(=O)(=O)N2CCCCC2)CC1	1%	-14%	6.9%	?	7%	2%	-13%	36%
O=C(Nc1ccccc1C(=O)NCc1ccccc1)c1ccccc1	1%	-7%	-4.6%	-21%[14.3 µM]	3%	-75%	-3%	-16%
Cc1cc(-c2ccc(C)c(S(=O)(=O)NCCCN3CCN(c4ccccc4F)CC3)c2)on1	-10%	?	/	/	/	-19%	2%	/
COc1ccc(-c2cc(C(=O)Nc3ccccc3)on2)cc1	0%	40%[activator]	/	/	/	9%	-4%	/
COc1ccc(C)cc1NC(=O)C(OC(=O)CNC(=O)c1ccc(Oc2ccccc2)cc1)c1ccccc1 (centres undefined)	-4%	5%	-19%	14%	?	23%	6%	6%
CCCC(C)C(=O)Nc1nnc(C)s1 (centres undefined)	10%	17%	6.6%	7%	11%	3%	15%	10%
O=C(NCc1cccnc1)Nc1ccc(Br)cc1Cl	2%	-5%	/	/	/	7%	-7%	/
Cc1ccc(NC(=O)CNCc2cccs2)cc1Br	0%	12%	/	7%	/	-3%	-14%	10%[46.1 µM]
COc1cc(NC(=O)c2cc(C3CC3)nc3c2c(C)nn3-c2ccc(C)cc2)cc(OC)c1	/	-18%	-4.0%	6%[46.1 µM]	?	/	/	/
O=c1c(/C=N/N2CCOCC2)c(O)n(-c2ccccc2)c(=S)n1-c1ccccc1	8%	-8%	-0.4%	18%	-12%	-2%	9%	?
Next part:
SMILES	SARS PLpro yeast	2A StopGo	Cruzain Triton	Lassa entry inh	Cruzain inh noDet	NS1 function inh	RE007 growth inh	Marburg entry inh
CCOC(=O)c1sc(NC(=O)CC(C)c2ccccc2)nc1C (centres undefined)	9%	-24%	/	?	/	27%	-9%	5.6µM*
Cc1c(S(=O)(=O)NC(C)c2ccccc2)c(=O)n(C)c(=O)n1C (centres undefined)	16%	-18%	/	2%	/	4%	4%	29%
COCCOC(=O)C1=C(C)NC(C)=C(C(=O)OCCOC)C1/C=C/c1ccccc1OC	0%	-9%	/	?	/	0%	2%	10%[46.1 µM]
CC(=O)Nc1ccc(NC(=O)CCOc2cc(C)ccc2C)cc1	2%	3%	/	-1%[46.1 µM]	/	5%	-5%	8%[46.1 µM]
O=C(NC(=S)NN1CCOCC1)c1cc(Br)ccc1Cl	11%	-13%	/	?	/	/	7%	21%
CC(NC(=O)Nc1ccc(Cl)cc1)c1ccc2c(c1)OCO2 (centres undefined)	6%	8%	/	/	/	6%	9%	?
Cc1cccc(-c2noc(-c3ccc(Cl)cc3[N+](=O)[O-])n2)c1	1%	-11%	-3.9%	?	3%	4%	/	?
COc1cccc(CNC(=O)CN2c3cccc4cccc(c34)S2(=O)=O)c1	-5%	0%	/	3%	/	/	0%	?

Outcome played no part in choosing rows; 4.7% or so of the library scored in one or more.
